# Screening data: PubChem BioAssay, Broad Institute
# FGF22 binding = binders of recombinant human FGF22 by thermal shift | Q9HCT0 | SYPRO orange fluorescence; percent of sucrose octasulfate shift, DMSO zero | calls only at 9.99 µM | hit rate 1.5% among 340,000 | AID 651658;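 active means melting point raised past a set limit in the mean and every replicate; three in four hits are not shown here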
# Target sequence (Q9HCT0 whole entry, looked up): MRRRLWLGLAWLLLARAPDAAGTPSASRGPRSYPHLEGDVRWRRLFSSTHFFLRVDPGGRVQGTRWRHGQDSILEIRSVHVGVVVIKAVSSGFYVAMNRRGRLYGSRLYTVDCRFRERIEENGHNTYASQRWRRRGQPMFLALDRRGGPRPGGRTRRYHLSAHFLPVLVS
# AF4-AF9 inh = MLL-AF4/AF9 protein interaction inhibition; AlphaScreen, biotin-AF4 peptide binding to FLAG-AF9; inhibition, % at 10 µM; hit rate 0.47% among 350,000;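 active means every replicate reaching a set inhibition limit, whatever the replicate mean, cut at about 25% in these data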;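 further: 0% = plate neutral control median and 100% = total signal loss; the record names both 10 and 1 µM as test concentration; the first replicate is given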
# Target sequence (P42568 whole entry, looked up): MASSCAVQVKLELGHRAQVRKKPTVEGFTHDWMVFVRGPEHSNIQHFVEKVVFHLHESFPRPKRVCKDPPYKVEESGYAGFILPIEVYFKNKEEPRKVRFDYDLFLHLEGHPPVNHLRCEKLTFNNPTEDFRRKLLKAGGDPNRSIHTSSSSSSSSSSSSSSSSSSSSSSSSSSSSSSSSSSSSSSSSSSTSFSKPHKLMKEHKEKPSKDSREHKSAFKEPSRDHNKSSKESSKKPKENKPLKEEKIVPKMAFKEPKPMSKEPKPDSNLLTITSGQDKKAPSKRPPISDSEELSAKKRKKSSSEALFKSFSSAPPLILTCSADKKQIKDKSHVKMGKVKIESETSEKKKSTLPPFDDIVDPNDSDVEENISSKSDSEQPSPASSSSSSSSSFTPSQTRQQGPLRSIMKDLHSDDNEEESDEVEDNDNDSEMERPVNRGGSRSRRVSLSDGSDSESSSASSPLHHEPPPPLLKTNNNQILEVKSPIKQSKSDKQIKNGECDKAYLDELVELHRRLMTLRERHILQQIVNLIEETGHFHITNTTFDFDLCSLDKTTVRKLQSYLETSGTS
# Ecoli rRNA inh = inhibitors of bacterial rRNA selective over humanized ribosomes | E. coli WT GFP vs humanized-ribosome RFP mutants, fluorescence, 24 h; active compounds read low; DMSO median 0, no signal -100 | GFP signal change (wild-type ribosome), % (concentration not given with the values) | hit rate 1.6% among 350,000 | AID 720706;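 active means significant combined selectivity score with lowered wild-type GFP, culture density cut under 30%, mutant RFP and density less affected; inactive means any of these conditions unmet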; further: one replicate is shown; some compounds called inactive have numbers as strong as hits
# Ecoli rRNA inh OD600 = second read-out of Ecoli rRNA inh, no call of its own (marks repeat the call); OD600 change, %; measured here: OD600 growth;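 optical density of the mix in the first replicate; 0 = DMSO median and -100 = no signal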
# Ecoli rRNA inh RFP = also measured in Ecoli rRNA inh; calls as there; RFP signal change, %; measured here: RFP humanized mutant strains;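 first replicate; 0 = DMSO median and -100 = no signal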
# The depositor's hits bear a star; i = inactive; + = active, no number; & = joins results of further samples. These rows are one share of the data. The share of hits here may be higher or lower than overall.
Compound,AF4-AF9 inh,Ecoli rRNA inh RFP,FGF22 binding,Ecoli rRNA inh,Ecoli rRNA inh OD600
CCCCCCN1C[C@@H](O)[C@H](n2cc(-c3ccc(F)cc3)nn2)C[C@@H]1c1ccc(OC)cc1,-1.1,-4.9,i,0.9,4.3
CCN(CC)C(=O)[C@H]1C[C@H](CC(=O)NCCCn2ccnc2)C(=O)N2CCc3c([nH]c4ccc(Cl)cc34)[C@]12C,1.8,1.2,i,-12.0,-13.9
C[C@@H]1CCCCO[C@@H](CN(C)C(=O)Cc2ccccc2)[C@@H](C)CN([C@H](C)CO)C(=O)c2cc(NS(C)(=O)=O)ccc2O1,-4.7,-1.0,i,2.5,10.2
COc1ccccc1C#Cc1cnc2c(c1)C(=O)N([C@H](C)CO)C[C@H](C)[C@@H](CN(C)C(C)=O)O2,0.6,-3.3,i,-7.8,2.9
O=[N+]([O-])c1cccc(C=NN=Cc2ccccc2O)c1,0.9,-3.4,i,0.2,15.7
N#C[C@@H]1N[C@@H](CO)[C@@H]1c1ccc(C#CC2CCCC2)cc1,-0.8,-1.1,i,1.5,0.8
C[C@@H]1CN([C@H](C)CO)S(=O)(=O)c2ccc(-c3ccncc3)cc2O[C@@H]1CN(C)C,-1.8,-0.1,i,3.5,2.8
O=C(Cc1ccccn1)N[C@@H]1CC[C@@H](CCn2cc(-c3cccnc3)nn2)O[C@@H]1CO,0.0,-0.9,i,2.3,-0.2
COCC#Cc1ccc2c(c1)O[C@H](CN(C)C(=O)c1ccccc1F)[C@H](C)CN([C@H](C)CO)S2(=O)=O,1.5,-3.3,i,-3.3,-4.1
COc1ccc2c3c(n(C)c2c1)[C@H](CO)N(Cc1cccc(Cl)c1)CC31CCN(C(=O)C2CC2)CC1,1.5,0.1,i,-2.3,-1.7
CN(C(=O)c1ccc(NC(=O)Cc2ccc(NC(=O)C3CCN(C(=O)CCc4ccccc4)CC3)cc2)cc1)C1CCCC1,-3.1,5.1,i,-9.4,-6.4
C[C@@H]1CN([C@@H](C)CO)C(=O)c2ccccc2-c2ccccc2CO[C@H]1CN(C)C(=O)c1cc(Cl)cc(Cl)c1,2.8,-0.2,i,2.5,3.4
CC(C)NC(=O)N(C)C[C@H]1Oc2ccc(NC(=O)CCN3CCOCC3)cc2CC(=O)N([C@H](C)CO)C[C@@H]1C,0.9,-0.3,i,1.6,2.8
C[C@@H]1CCCCO[C@@H](CN(C)S(=O)(=O)c2cccs2)[C@@H](C)CN([C@@H](C)CO)C(=O)c2cc(NS(C)(=O)=O)ccc2O1,-12.9,0.5,i,-4.2,8.3
CC(=O)NCCc1ccc(-c2csc(NC(=O)C3CC(=O)N(C4CCCC4)C3)n2)cc1 (stereo not given),0.0,0.6,i,-10.7,-18.1
C[C@@H]1CCCCO[C@H](CN(C)S(=O)(=O)c2ccc(Cl)cc2)[C@@H](C)CN([C@@H](C)CO)C(=O)c2cc(NC(=O)NC3CCCCC3)ccc2O1,2.0,-3.0,i,-0.6,0.1
C[C@@H]1CN([C@H](C)CO)C(=O)CCCn2nncc2CO[C@H]1CN(C)C(=O)Nc1ccnc(N2CCOCC2)c1,-0.9&-2.7,-0.6&1.0,i,4.4&0.1,6.7&-0.2
COc1ccc(S(=O)(=O)N(C)C[C@@H]2Oc3ccc(NC(=O)CCC(F)(F)F)cc3C(=O)N([C@H](C)CO)C[C@H]2C)cc1,2.5,-4.6,i,0.3,8.5
CO[C@H]1CN(C)C(=O)c2ccc(NC(=O)c3ccc(F)cc3)cc2OC[C@@H](C)N(C(C)=O)C[C@H]1C,0.1,-2.8,i,2.8,9.5
Cc1noc(C)c1NC(=O)N(C)C[C@@H]1OCCCC[C@H](C)Oc2ccc(NC(=O)c3ccncc3)cc2C(=O)N([C@@H](C)CO)C[C@@H]1C,-4.0,-0.5,i,3.1,6.4
O=C(C[C@@H]1CC[C@@H](NC(=O)c2ccc3c(c2)OCO3)[C@@H](CO)O1)NC1Cc2ccccc2C1,0.0,2.3,i,2.3,-3.5
Cc1ccc(S(=O)(=O)N(C)C[C@@H]2Oc3cc(C4=CCCC4)ccc3S(=O)(=O)N([C@@H](C)CO)C[C@H]2C)cc1,1.3,-3.0,i,0.3,-3.3
COC(=O)C[C@H]1CC[C@H]2[C@@H](COC[C@@H](O)CN2S(=O)(=O)c2cn(C)cn2)O1,0.3,-3.3,i,0.8,10.1
O=C(NCC[C@@H]1CC[C@H](NC(=O)C2CC2)[C@@H](CO)O1)c1cc(Cl)cc(Cl)c1,-4.2,-2.0,i,-2.0,8.0
C[C@H](CO)N1C[C@H](C)[C@H](CN(C)Cc2ccccn2)Oc2cc(C3=CCCCC3)ccc2S1(=O)=O,10.6,9.3,i,-38.8,-63.4
COc1ccc(-c2cn(CC[C@H]3CC[C@H](NC(=O)Nc4ccc(F)cc4)[C@@H](CO)O3)nn2)cc1,-4.0,2.5,+,-6.3,-4.6
C[C@H](CO)N1C[C@H](C)[C@H](CN(C)C(=O)Nc2ccc(F)cc2)Oc2c(NC(=O)c3cnccn3)cccc2C1=O,-2.8,0.5,i,-4.3,4.0
CC(C)/C=C/C(=O)N1CCC(N2CCC(C(=O)NCC3CCCO3)CC2)CC1 (stereo not given),-1.7,0.4,i,17.6,30.4
COc1ccc(CNC(=O)C[C@@H]2C[C@@H]3c4cc(NS(=O)(=O)c5ccc(F)cc5)ccc4O[C@@H]3[C@H](CO)O2)cc1,-2.9,1.6,i,-4.4,-15.2
C[C@@H]1CN([C@@H](C)CO)C(=O)CCCn2nncc2CO[C@H]1CN(C)Cc1cccc(O)c1,-6.5&-0.4&3.9,5.1&-0.2,i,22.9&0.4,13.2&-2.5
OCC1OC(Oc2c(Br)cc(Br)cc2Br)C(O)C(O)C1O (stereo not given),-0.8,-14.8,i,-48.0,-65.4
CC1(C)OC(=O)C2=C(C[C@@H](C3CC3)O[C@@H]2C2CC2)O1,-2.6,3.4,i,23.5,20.6
COc1ccc(S(=O)(=O)N(C)C[C@H]2Oc3ccc(NC(=O)Nc4ccc(C(F)(F)F)cc4)cc3CC(=O)N([C@@H](C)CO)C[C@H]2C)cc1,-0.7,-1.4,i,3.1,8.0
C[C@H](CO)N1C[C@H](C)[C@@H](CN(C)Cc2ccc3c(c2)OCO3)Oc2ccc(NC(=O)Nc3ccc4c(c3)OCO4)cc2CC1=O,18.9,16.4,i,-0.2,-7.5
CC1CCN(C(=O)CSc2nnc(-c3ccco3)n2N)CC1,-1.6,-3.5,i,2.4,6.5
CO[C@H]1CN(C)C(=O)c2cc(NC(=O)Nc3c(C)noc3C)ccc2OC[C@@H](C)NC[C@@H]1C,-1.2,-1.4,i,-0.8,6.1
C[C@H](CO)N1C[C@H](C)[C@@H](CN(C)Cc2ccccn2)Oc2ncc(C#Cc3ccc(F)cc3)cc2C1=O,1.9,12.8,i,-0.5,-7.4
C[C@H]1CCCCO[C@@H](CN(C)C(=O)Nc2ccccc2)[C@@H](C)CN([C@@H](C)CO)C(=O)c2cc(NS(=O)(=O)c3ccc(Cl)cc3)ccc2O1,-1.5,-2.5,i,4.4,-0.3
COC(=O)c1cc2c(c3c4ccccc4n(S(=O)(=O)c4ccc(C)cc4)c13)C(=O)N(C)C2,4.0,8.8,i,-2.0,6.5
O=C(NCC[C@@H]1CC[C@H](NC(=O)c2cnccn2)[C@@H](CO)O1)c1ccc2c(c1)OCO2,-1.5,-0.9,i,2.7,4.6
CNc1ccc(C=C2C=Cc3ccccc32)cc1,6.4,3.2*,i,-19.5*,0.6*
Cc1noc(C)c1NC(=O)Nc1ccc2c(c1)CC(=O)N([C@@H](C)CO)C[C@H](C)[C@@H](CN(C)S(=O)(=O)c1cccs1)O2,2.8,0.1,i,-0.4,4.4
O=C(Nc1ccc(C(F)(F)F)cc1)N[C@H]1C=C[C@H](CC(=O)N2CCCCC2)O[C@@H]1CO,1.9,0.8,i,4.4,9.0
Cn1nc(C(C)(C)C)cc1C(=O)N1CCCCC1c1cc(C(=O)Nc2ccccc2)no1 (stereo not given),-1.2,-0.2,i,-6.0,-25.4
CC[C@H](C)[C@H]1CNC(=O)C(=O)N1CC1CCN(CCc2ccc(Cl)c(Cl)c2)CC1,1.8,5.0,i,10.5,-3.1
CC(=O)NC(NC(=S)Nc1c(C)n(C)n(-c2ccccc2)c1=O)C(Cl)(Cl)Cl (stereo not given),-4.0,3.0,i,11.9,8.3
CN1CCN(C(=O)C[C@@H]2CC[C@@H]3[C@H](COC[C@H](O)CN3Cc3ccc4c(c3)OCO4)O2)CC1,-2.3,2.6,i,-0.4,6.8
C=CCN1[C@H](C)[C@H](c2ccccc2)Oc2cc(Br)ccc2S1(=O)=O,-2.3,-4.2,i,6.5,-2.1
COc1ccccc1-c1cnc2c(c1)C(=O)N([C@@H](C)CO)C[C@H](C)[C@H](CN(C)Cc1ccncc1)O2,0.8,-3.1,i,-3.2,-8.2
C[C@@H]1CN([C@H](C)CO)S(=O)(=O)c2ccc(-c3ccc(C(=O)N(C)C)cc3)cc2O[C@@H]1CN(C)Cc1ccc2c(c1)OCO2,0.3,5.3,i,-1.0,-4.8

# (next part)
Compound,AF4-AF9 inh,Ecoli rRNA inh RFP,FGF22 binding,Ecoli rRNA inh,Ecoli rRNA inh OD600
O=C(N[C@H]1CC[C@@H](CCn2cc(C3CCCCC3)nn2)O[C@@H]1CO)c1cccnc1,0.4,-1.9,i,0.4,-4.3
COc1cccc(NC(=O)CN(C)C(=O)c2cc(-c3ccccc3)nc3ccc(C)cc23)c1,0.1,-0.2,i,15.3,7.9
O=C(Nc1ccc(Cl)cc1)N[C@H]1CC[C@H](CCNS(=O)(=O)c2ccccc2F)O[C@H]1CO,-2.1,3.5,i,-7.2,-11.2
COc1cccc(CNC(=O)[C@@H]2CCCN2C(=O)OC(C)(C)C)c1,-1.3,-2.0,i,1.9,11.7
Cc1noc(C)c1S(=O)(=O)Nc1ccc2c(c1)C(=O)N([C@@H](C)CO)C[C@H](C)[C@H](CN(C)Cc1ccncc1)OCCCC[C@H](C)O2,1.8,2.1,i,0.0,10.9
O=C(C[C@@H]1CC[C@@H]2[C@H](COC[C@H](O)CN2C(=O)c2ccccc2)O1)NCc1ccc(-c2ccccc2)cc1,3.1,3.3,i,-4.7,-6.1
O=C(NCC[C@@H]1CC[C@@H](NS(=O)(=O)Cc2ccccc2)[C@H](CO)O1)C1CCOCC1,0.2,-2.0,i,0.9,-0.2
COCC(=O)N(C)C[C@@H]1Oc2ncc(C#C[C@H](C)O)cc2C(=O)N([C@@H](C)CO)C[C@H]1C,-1.8,1.0,i,3.7,-2.4
Cc1nn(-c2ccc(F)cc2)c(Cl)c1/C=C(/CC(=O)O)c1nc2ccccc2s1,1.0,-5.6,i,-22.7,-48.5
C[C@@H]1CN([C@H](C)CO)C(=O)c2cc(NC(=O)Nc3ccc4c(c3)OCO4)ccc2O[C@@H](C)CCCCO[C@@H]1CN(C)Cc1ccc(Cl)c(Cl)c1,-2.3,-0.6,i,2.5,-1.7
C[C@@H]1CN([C@@H](C)CO)C(=O)c2cc(NS(C)(=O)=O)ccc2O[C@H]1CN(C)Cc1ccc(C(=O)Nc2ccccc2N)cc1,0.9,-0.3,i,1.5,5.5
CC1(C(=O)Nc2cccc(Oc3ccccc3)c2)CCN1Cc1cc2ccccc2o1 (stereo not given),-3.6,4.4,i,17.8,13.2
C/C=C/c1ccc([C@H]2[C@@H](CO)N(CC3CCCC3)C23CN(S(=O)(=O)CC)C3)cc1,3.1,7.2,i,-7.4,-12.3
CCCNC(=O)C[C@@H]1CC[C@@H]2[C@H](COc3ccc(NC(=O)Nc4c(C)noc4C)cc3C(=O)N2C)O1,-2.4,-1.8,i,-0.9,-7.2
CC(C)NC(=O)N(C)C[C@@H]1Oc2ccc(NS(C)(=O)=O)cc2CC(=O)N([C@H](C)CO)C[C@H]1C,-2.6,-2.6,i,-2.3,-1.8
CCN(CC)CCNC(=O)c1ccc(NC(=O)c2cccc(S(=O)(=O)N3CCc4ccccc43)c2)cc1,13.5,5.4,i,-7.8,-1.2
COCC#Cc1ccc2c(c1)O[C@H](CN(C)C(=O)C1CCC1)[C@@H](C)CN([C@@H](C)CO)S2(=O)=O,0.9,0.2,i,1.2,-1.6
C/C=C/c1ccc2c(c1)O[C@H](CN(C)C(=O)c1ccccc1)[C@@H](C)CN([C@@H](C)CO)S2(=O)=O,6.2,-0.6,i,-4.0,-0.2

# By substructure: the compounds so far with a tert-butyl group.
Compound,AF4-AF9 inh,Ecoli rRNA inh RFP,FGF22 binding,Ecoli rRNA inh,Ecoli rRNA inh OD600
Cn1nc(C(C)(C)C)cc1C(=O)N1CCCCC1c1cc(C(=O)Nc2ccccc2)no1 (stereo not given),-1.2,-0.2,i,-6.0,-25.4
COc1cccc(CNC(=O)[C@@H]2CCCN2C(=O)OC(C)(C)C)c1,-1.3,-2.0,i,1.9,11.7
